# Screens deposited in PubChem by several laboratories.
# MT1-MMP act inh = blockers of MT1-MMP proenzyme processing, primary screen, HT1080 RFP-PRO-GFP cells, GFP/RFP fluorescence | GFP/RFP ratio change, % at 20 µM | Matrix metalloproteinase-14 (Homo sapiens), P50281 | 360,000 compounds, 0.061% hits | GFP/RFP ratio fluorescence, overnight; percent of plate control window, DMSO zero;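 active = GFP/RFP ratio change of at least 30% with cell ATP level not reduced by more than half and red fluorescence within 50% of control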; note: strong numbers were not always called active
#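 Compound: 20 µM single dose, 1% DMSO / System: HT1080 RFP-PRO-GFP cells / Controls: DMSO and RFP-L50D-GFP cell wells / Read-out basis: GFP/RFP fluorescence ratio / Schedule: overnight compound exposure at 37 °C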
# Env fusion inh = inhibitors of HIV-1 Env-driven cell-cell fusion, primary screen, HeLa-JRFL effector, CEM21 target cells, luciferase. inhibition, % at 12.3 µM. 360,000 compounds, 1.1% hits. AID 651610, 2012;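 active = mean replicate inhibition score of at least 50 and every replicate individually at or above 50; inconclusive = only one of the two criteria met; inactive = mean below 50 and not all replicates reaching 50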;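 note: 0% = plate neutral controls and 100% = maraviroc near 300 nM; one replicate is shown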
# MT1-MMP act inh RFP = second read-out of MT1-MMP act inh, no call of its own (marks repeat the call); RFP signal change, %; measured here: RFP expression control read;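 0 = vehicle wells; hits needed this value within 50% of zero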
# The depositor's hits bear a star; i = inactive; ? = inconclusive. Not all compounds are listed, so the mix of outcomes need not match the whole.
[1] N#C/C(=C/c1ccc(-c2ccc([N+](=O)[O-])cc2)o1)C(=O)Nc1nc(-c2cccs2)cs1
[2] CC1(C(=O)Nc2ccc3c(c2)OCCO3)CN(S(C)(=O)=O)CC(=O)N1CCc1c[nH]c2ccccc12 (stereo not given)
[3] CC(C)(C)NC(=O)C(c1ccc(-c2ccccc2)cc1)n1c(=O)c(-c2ccccc2)nc2ccccc21 (stereo not given)
[4] CCOC1=C2CN(S(=O)(=O)c3ccc(C)cc3)C(c3ccc(CC)cc3)CC2N(S(=O)(=O)c2ccc(C)cc2)C(c2ccc(CC)cc2)C1 (stereo not given)
[5] CC(C)NC(=O)C1C(c2ccccc2)=Nc2ccccc2N1C(=O)c1cc(Cl)cc(Cl)c1 (stereo not given)
[6] CCCC(C)(C)C(=O)N1CCC1(C)C(=O)NS(=O)(=O)c1ccc(Br)cc1 (stereo not given)
[7] CC(=O)N1c2ccccc2N=C(c2ccc3c(c2)OCO3)C1C(=O)NCc1ccccc1 (stereo not given)
[8] CC(=O)N1CC2(CC(c3ccccc3F)=NO2)CN1c1ccc(Cl)cc1 (stereo not given)

Compound,1,2,3,4,5,6,7,8
MT1-MMP act inh,21,2,-17,7,-19,1,7,3
MT1-MMP act inh RFP,23,1,-20,-24,-19,6,7,-1
Env fusion inh,-28,-11,9,26,-21,17,18,-20

[9] COc1cccc(C(Nc2ccccc2)c2ccc3ccc(C)nc3c2O)c1 (stereo not given)
[10] COCCNC(=O)C1(C)CCCN(Cc2noc(-c3ccccc3OC)n2)C1 (stereo not given)
[11] COC1=CC(=O)OC(c2ccccc2)C1 (stereo not given)
[12] COc1ccc(/C=C2/CSC/C(=C/c3ccc(OC)c(OC)c3)C2=O)cc1OC
[13] O=C1c2ccccc2C(c2nnnn2Cc2ccccc2)N1CCc1ccccc1F (stereo not given)
[14] CNC(=O)C[C@H]1C(=O)N(c2ccc(OC)cc2)C[C@@H]1Cc1ccccc1
[15] Cc1cc(OCc2nc(N)nc(N)c2-c2ccc(Cl)c(Cl)c2)ccc1[N+](=O)[O-]
[16] CCOC(=O)[C@]12CCCC=C1N(Cc1ccc(Cl)cc1Cl)C(=O)[C@H](CC(=O)NCc1cccc3ccccc13)C2

Compound,9,10,11,12,13,14,15,16
MT1-MMP act inh,-5,2,-2,-9,3,5,2,-1
MT1-MMP act inh RFP,-19,5,6,-27,2,5,-24,-6
Env fusion inh,-10,-8,-2,i,-5,-13,48,22

[17] O=C(NCCN1CCC(n2c(=O)[nH]c3ccccc32)CC1)c1ccccc1
[18] CC(NC(=O)c1ccc2nc(Cc3cccc(Cl)c3)oc2c1)c1ccncn1 (stereo not given)
[19] COC(=O)C1(C(=O)OC)C/C=C\CN(S(=O)(=O)c2ccccc2[N+](=O)[O-])CC1
[20] COc1cccc(C2=Cc3ccc(F)cc3C(CC(C)=O)N2c2ccc(-c3cncnc3)cc2)c1 (stereo not given)
[21] Cc1cc(C)cc(Cn2cc(CN3CC(N4CCN(CCO)CC4)CS3(=O)=O)nn2)c1 (stereo not given)
[22] COC(=O)[C@]12CCCCC=C1N(CCc1ccc(OC)c(OC)c1)C(=O)[C@H](CC(=O)N1CCCC1)C2
[23] CN(C)C(=O)c1ccc(-c2nnc(OCc3nc4ccccc4n3C)c3ccccc23)cc1
[24] O=C(NCc1ccccn1)[C@@H]1CCCN1C(=O)[C@@H]1CCCN1C(=O)c1c(F)cccc1F

Compound,17,18,19,20,21,22,23,24
MT1-MMP act inh,3,1,4,-5,5,8,0,-2
MT1-MMP act inh RFP,0,-1,3,-1,9,4,3,4
Env fusion inh,-4,20,3,17,-84,?,0,-6

[25] Cc1cccc(C)c1-n1nnnc1C(c1ccnc2ccccc12)N(CCN(C)C)Cc1ccccc1 (stereo not given)
[26] COc1ccc(C(=O)c2[nH]c(N)c(C(=O)NCCc3c[nH]c4ccccc34)c2-c2ccc(Cl)cc2)cc1
[27] Cc1cc(C)n2c(Nc3ccc4c(c3)OCCO4)c(C(C)C)nc2n1
[28] COc1ccc(C2OC(CCc3ccccc3)Cc3[nH]c(=S)[nH]c(=O)c32)cc1 (stereo not given)
[29] O=C(Cn1c(Cn2c(-c3cnccn3)nc3ccccc32)nc2ccccc21)c1ccc(OC(F)(F)F)cc1
[30] Cc1csc(CN(C)C(=O)CC2C(=O)NCCN2Cc2ccccc2C)n1 (stereo not given)
[31] CCC12CCC3c4ccc(O)cc4CCC3C1CC(O)C2O (stereo not given)
[32] O=C(C(=Cc1ccc(F)cc1)C(=O)c1ccccc1)c1ccccc1

Compound,25,26,27,28,29,30,31,32
MT1-MMP act inh,-3,3,-1,-1,0,1,4,-2
MT1-MMP act inh RFP,-4,1,1,-2,2,5,3,-4
Env fusion inh,-225,8,21,-4,20,-10,4,-50

[33] O=C(NC1CCCCC1)C(c1ccnc2ccccc12)n1c(=O)c(-c2ccco2)nc2ccccc21 (stereo not given)
[34] C=C1c2nc3ccccc3n2C=C(c2ccc(C)cc2)N1c1ccccc1
[35] COCCCn1cc(CN2CC(N3CCN(C)CC3)CS2(=O)=O)nn1 (stereo not given)
[36] COC(=O)[C@@]12C[C@@H](CC(=O)NCc3cccc4ccccc34)C(=O)N(Cc3ccc4c(c3)OCO4)C1=CCC(C)(C)C2
[37] COC(=O)[C@@]1(Cc2ccc(F)cc2)[C@H]2c3cc(C(=O)N4CCCC4)n(Cc4ccc(OC(F)(F)F)cc4)c3C[C@H]2CN1C(=O)c1ccccc1
[38] c1ccc2c(c1)CN1C(=N2)COc2ccccc2C1c1nc2ccccc2[nH]1 (stereo not given)
[39] COc1cc(OC)cc(C2=Cc3ccc(OC)cc3C(CC(C)=O)N2c2ccc(-c3cccs3)cc2)c1 (stereo not given)
[40] CCC(C)c1ccc(O)c(NC(=S)NC(=O)c2cccs2)c1 (stereo not given)

Compound,33,34,35,36,37,38,39,40
MT1-MMP act inh,-3,1,3,-5,-22,-1,8,-35
MT1-MMP act inh RFP,7,11,1,-5,-37,3,-18,-21
Env fusion inh,10,11,-16,-20,-10,-6,3,-44

[41] O=C(CN(c1ccccc1Cl)S(=O)(=O)c1ccccc1)NC1CC2CCC1C2 (stereo not given)
[42] CCOC(=O)[C@]12CCCC=C1N(Cc1ccc(Cl)cc1Cl)C(=O)[C@H](CC(=O)N1CCOCC1)C2
[43] CC(C)(C)c1ccc(C(=O)N2CCOC23CCCCC3)cc1
[44] CC(C)c1ccc(C(C(C(=O)c2ccccc2)N2CCOCC2)N2CCOCC2)cc1 (stereo not given)
[45] COC(=O)C[C@@H]1CC[C@@H](NC(C)=O)[C@@H](CO)O1
[46] COc1ccc(NC(=O)C2(C)CCN2Cc2ccc(OC(F)(F)F)cc2)cc1OC (stereo not given)
[47] O=C1C=CC2(O[C@H](c3ccccc3)[C@@H](c3ccccc3)O2)[C@H](Sc2ccccc2O)C1
[48] O=C(O)C1C=Cc2ccccc2N1C(=O)c1ccccc1 (stereo not given) (tested in a mixture with another compound)

Compound,41,42,43,44,45,46,47,48
MT1-MMP act inh,-3,-1,7,1,-2,2,-7,0
MT1-MMP act inh RFP,-3,2,3,2,7,-7,-29,4
Env fusion inh,18,-1,24,-6,-15,26,-113,-11

[49] COc1ccc(N2CCN(C(=O)Oc3ccc([N+](=O)[O-])cc3)CC2)cc1
[50] CN(C)c1ccc(C=NNC(=O)c2cccc3ccccc23)c(Cl)c1
[51] CCOC(=O)Nc1cccc2c1-c1ccc([N+](=O)[O-])cc1C2=O
[52] COCCNc1ncnc2c1ncn2[C@H]1CN(CCc2ccccc2)C[C@@H](CO)O1
[53] [N-]=[N+]=NC(c1ccccc1)C(NC(=O)c1cc(C(F)(F)F)cc(C(F)(F)F)c1)c1ccccc1 (stereo not given)
[54] CCC(C)CN1C(=O)CN(S(C)(=O)=O)CC1(C)C(=O)Nc1ccc2c(c1)OCCO2 (stereo not given)
[55] Cc1cn(C2CC(O)C(CO)O2)c(=O)n(CCCc2ccccc2)c1=O (stereo not given)
[56] COC(=O)[C@]12CCCCC=C1N(Cc1ccc3c(c1)OCO3)C(=O)[C@H](CC(=O)NCCC(C)C)C2

Compound,49,50,51,52,53,54,55,56
MT1-MMP act inh,2,6,-4,-3,-21,-2,5,6
MT1-MMP act inh RFP,-8,-9,-1,2,-26,2,1,1
Env fusion inh,16,-305,14,-9,19,3,20,-9

[57] Nc1ccc2c(c1)Cc1cc(N)c(Br)cc1-2
[58] CCOC(=O)CCC(NC(=O)c1ccc(CNc2nc3cc(C(F)(F)F)ccc3nc2C(=O)OCC)cc1)C(=O)OCC (stereo not given)
[59] O=C(O)c1cccc2c1C(=O)c1cc([N+](=O)[O-])ccc1-2
[60] CSc1nc(N)n2nccc2n1
[61] CCOc1cc(OCC)cc(C(=O)N2CCC[C@H]2C(=O)N2CCC[C@H]2C(=O)N[C@@H](C)c2ccccc2)c1
[62] Cc1ccc(N2CCN(C(=O)C(=O)c3cccc([N+](=O)[O-])c3)CC2)cc1
[63] CCOC(=O)N1CCN(C(=O)C[C@@H]2C[C@@]3(C(=O)OC)CCCCC=C3N(Cc3ccc(Cl)cc3Cl)C2=O)CC1
[64] Cc1cc(C)c2nc(Nc3nc(CSc4nc5ccccc5[nH]4)cc(=O)[nH]3)nc(C)c2c1

Compound,57,58,59,60,61,62,63,64
MT1-MMP act inh,4,-1,7,0,7,2,-2,8
MT1-MMP act inh RFP,-3,3,1,-1,6,-3,-6,-11
Env fusion inh,-141,0,-19,-22,-14,14,-7,83*

# Next part (3 carried over from the part before).
[62] Cc1ccc(N2CCN(C(=O)C(=O)c3cccc([N+](=O)[O-])c3)CC2)cc1
[63] CCOC(=O)N1CCN(C(=O)C[C@@H]2C[C@@]3(C(=O)OC)CCCCC=C3N(Cc3ccc(Cl)cc3Cl)C2=O)CC1
[64] Cc1cc(C)c2nc(Nc3nc(CSc4nc5ccccc5[nH]4)cc(=O)[nH]3)nc(C)c2c1
[65] CC(C)C[C@H]1CN(CCCC[C@H]2CNC(=O)C(=O)N2CCc2ccc(O)cc2)C(=O)C(=O)N1CCC1CCCCC1
[66] CCOC(=O)[C@]12CCCC=C1N(Cc1cccc3ccccc13)C(=O)[C@H](CC(=O)NCc1cccc3ccccc13)C2
[67] CCOC(=O)C1CCCN(C(=O)c2ccc3sccc3c2)CC1 (stereo not given)
[68] COc1ccccc1Cc1c(C2CCCCC2)nc2c3ccccc3ccn12
[69] CCOC(=O)C(=O)Cc1cccnn1
[70] NC1=NC(=O)C(=Cc2ccccc2)S1
[71] CCC1OC(C2CC2)CC2=C1C(=O)OC(C)(C)O2 (stereo not given)
[72] CC(C)CC1C(=O)N(Cc2cn(Cc3ccco3)nn2)CCS(=O)(=O)N1Cc1ccc(-c2ccncc2)cc1 (stereo not given)

Compound,62,63,64,65,66,67,68,69,70,71,72
MT1-MMP act inh,2,-2,8,6,-5,3,6,1,-1,2,6
MT1-MMP act inh RFP,-3,-6,-11,4,-9,3,-2,0,3,1,-7
Env fusion inh,14,-7,83*,11,-8,-1,7,15,-15,6,-19

# Along the list, quoted from above:
# Compounds 63 to 70 in Env fusion inh, in turn: -7, 83*, 11, -8, -1, 7, 15, -15
# Compounds 63 to 70 in MT1-MMP act inh, in turn: -2, 8, 6, -5, 3, 6, 1, -1
# Compounds 63 to 70 in MT1-MMP act inh RFP, in turn: -6, -11, 4, -9, 3, -2, 0, 3

# Later entries.
[73] CC(=O)CC1c2cc(F)ccc2C=C(c2ccsc2)N1c1ccc(-c2ccc(C(N)=O)cc2)cc1 (stereo not given)
[74] O=C(NN=Cc1cccc(O)c1O)c1ccccc1
[75] O=C(c1ccccc1)N(c1ccccc1)c1ccccc1O
[76] COc1ccc(C2=CCCC2)c(OC)c1
[77] Cc1ccc(S(=O)(=O)N2CCC(=O)N([C@H](COCc3ccccc3)Cc3ccccc3)CC2)cc1
[78] O=C(NC1CCCCC1)C(c1ccc(C(F)(F)F)cc1)n1c(=O)c(-c2cc3ccccc3[nH]2)nc2ccccc21 (stereo not given)
[79] N#CCCN(NC(=O)OCc1ccccc1)C(=O)OCc1ccccc1
[80] CCC(=O)[C@@H](C)[C@@H](OC(C)=O)[C@H](C)C[C@@H](C)[C@H]1OC(=O)C[C@@]2(O)CC=C(C)C(O2)C(C)=CCCC[C@H](O[C@H]2C[C@@H](OC(N)=O)[C@H](OC(C)=O)[C@@H](C)O2)C=C[C@H](C)C[C@H]1C

Compound,73,74,75,76,77,78,79,80
MT1-MMP act inh,-4,-3,-1,2,-7,-22,-2,-5
MT1-MMP act inh RFP,-11,-6,-3,0,-8,-28,-1,-1
Env fusion inh,-90,-19,-20,41,-18,2,4,0

[81] CCOC(=O)[C@]12CCCC=C1N(Cc1ccccc1)C(=O)[C@H](CC(=O)NCC1CCCCC1)C2
[82] CCCc1c(-c2ccccc2Br)ncn1Cc1ccccc1OC
[83] Cc1ccc(P(=O)(c2ccc(C)cc2)[C@@H](NC(c2ccccc2)c2ccccc2)c2ccccc2)cc1
[84] CN(N=Cc1cccc2cccnc12)c1ccc([N+](=O)[O-])cc1[N+](=O)[O-]

Compound,81,82,83,84
MT1-MMP act inh,0,5,-27,-31
MT1-MMP act inh RFP,0,-22,-32,-1
Env fusion inh,-30,28,-27,-3
